D2 ag = agonists of human D2 dopamine receptor (beta-arrestin) | P14416 | DiscoveRx PathHunter D2 beta-arrestin, luminescence, 90 min; 100% = 57 uM dopamine signal | activation, % (no concentration beside the values) | 360,000 compounds, 0.084% hits; in the data active = activation above about 40%; inconclusive = about 15% to 40%; inactive = below about 15%; also: compound concentration not given in the record; the text of the record calls up to 30% inactive
Target sequence (P14416 whole entry, looked up): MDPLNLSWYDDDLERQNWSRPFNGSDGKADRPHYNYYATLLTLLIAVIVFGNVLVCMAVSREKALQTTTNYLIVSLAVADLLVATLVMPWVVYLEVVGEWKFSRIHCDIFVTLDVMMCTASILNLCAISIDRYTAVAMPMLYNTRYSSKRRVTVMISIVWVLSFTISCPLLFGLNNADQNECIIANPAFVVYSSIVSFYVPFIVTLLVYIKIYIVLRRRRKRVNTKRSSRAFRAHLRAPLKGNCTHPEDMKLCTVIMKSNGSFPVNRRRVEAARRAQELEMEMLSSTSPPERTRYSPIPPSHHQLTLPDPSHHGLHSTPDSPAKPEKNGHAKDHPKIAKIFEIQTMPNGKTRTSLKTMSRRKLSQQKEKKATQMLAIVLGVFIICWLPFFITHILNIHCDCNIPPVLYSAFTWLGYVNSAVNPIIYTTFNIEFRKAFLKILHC
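DiscoveRx PathHunter D2 beta-arrestin cells (2,100/well) attached overnight, then compound-stimulated 90 min at 37 C in HBSS/10 mM HEPES/0.1% Tween-20 buffer; beta-galactosidase complementation read by luminescence after 1 h at ambient temperature. Dopamine 57 uM final (EC100) as control.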
PINK1 expr mod = modulators of PINK1 expression; Potency, µM (titrated, usually from 76.6 µM), inactives show top-dose activation (PINK1 increase), hits mostly activators; 410,000 compounds, 0.2% hits; PINK1 immunofluorescence, high-content cytometry, 24 h; active = well fitted activation curve with a large enough effect; inconclusive = small, poorly fitted or top-dose-only effect; inactive = flat fitted curve, though single readings scatter; cell line not stated here;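 also: potency is read from the fitted curve at half-maximal effect; % of control where 0% means no effect; nearly all actives have a fitted effect of over 65% in size; a mitochondrial uncoupler was the plate control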
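PINK1 protein level read as immunofluorescence by microplate cytometer in a fixed, stained stable cell line after 24 h exposure to five compound concentrations, with CCCP as control.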
TRPV1 PAM = human TRPV1 potentiation. Q8NER1. TRPV1-expressing cells, Fluo-8 calcium influx, capsaicin EC20 potentiation; host cell line not named in the record; control for the full effect not named in the record. potentiation, % at 8.33 µM. 320,000 compounds, 0.02% hits. AID 540277; active means potentiation above 80%; inconclusive means 30% to 80%; inactive means below 30%; also: 0% is about no effect
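Cells expressing TRPV1 were dye-loaded with Fluo-8 and read kinetically: 10 s baseline, 3 min after compound (agonist portion), then 2 min after EC20 capsaicin (allosteric enhancer portion). Calcium-bound dye fluorescence at 480/520 nm.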
D2 potentiator = positive allosteric modulators of human D2 dopamine receptor | potentiation, % (concentration not given with the values) | 360,000 compounds, 0.23% hits | DiscoveRx D2 beta-arrestin cells, luminescence, 90 min; 100% = 57 uM dopamine signal | P14416; active = potentiation of 50% or more; inconclusive = 30% to 50%; inactive = 30% or less;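 also: tested on top of an EC20 dose of dopamine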
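PathHunter beta-arrestin assay in DiscoveRx D2 cells. Compounds were added with an EC20 of dopamine (50 nM final) for 90 min at 37 deg C. Luminescence was read 1 h after detection reagent, with 57 uM dopamine as the EC100 control.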
CtBP-E1A inh = CtBP/E1A binding inhibition; AID 651724; activity change, % (concentration not given with the values); 340,000 compounds, 0.49% hits; AlphaScreen GST-E1A/His-CtBP binding, 1536-well; stronger effect = lower value; control for the full effect not named in the record; in the data active means activity change below about -65%; inconclusive means about -30% to -65%; inactive means above about -30%; also: % is scaled to controls: 0 for no effect and ±100 for the full control effect
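Homogeneous bead-based format: GST-tagged E1A captured on glutathione donor beads, His-tagged CtBP on nickel acceptor beads; compounds precede bead addition by 2 h at 37 °C.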
Sfp inh = Sfp phosphopantetheinyl transferase inhibition; Potency, µM, without a hit: max response, negative = inhibition, most hits filed as inhibitors; Biochemical Sfp PPTase activity, qHTS; 310,000 compounds, 3.5% hits; active = well fitted inhibition curve with a large enough effect; inconclusive = small, poorly fitted or top-dose-only effect, or another doubt; inactive = no such curve, though single readings can be large or run the other way;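 also: the enzyme is Sfp with the accession as filed and its product quenches rhodamine fluorescence; potency is read from the fitted curve at half-maximal effect; 0% = enzyme reaction without inhibitor and -100% = no enzyme wells; top concentration of the series not given in the record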
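Step 1, compound plus 15 nM Sfp-PPTase, 15 min, room temperature. Step 2, add rhodamine-CoA (5 uM) and BHQ-2-YbbR (12.5 uM). Step 3, read 525/598 nm fluorescence at 0 and 30 min.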
Six1-Eya2 blk = Six1/Eya2 interaction inhibition; activity change, % (test concentration not listed); 360,000 compounds, 0.56% hits; AID 651725; AlphaScreen GST-Six1/His-Eya2 binding, biochemical; stronger effect = lower value; control for the full effect not named in the record; in the data active = activity change below about -65%; inconclusive = about -30% to -65%; inactive = above about -30%; also: % is scaled to controls: 0 for no effect and ±100 for the full control effect
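AlphaScreen luminescence read after one hour at 37 °C in darkness. Pin-transferred compounds met GST-Six1 and His-Eya2 protein (5X stock 250 nM/500 nM) plus glutathione donor and Ni-chelate acceptor beads (5X, 50 ug/mL).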
An asterisk follows results filed as active; ? = inconclusive; · = no result given; [ ] = remark or other dose.

SMILES | D2 ag | PINK1 expr mod | TRPV1 PAM | D2 potentiator | CtBP-E1A inh | Sfp inh | Six1-Eya2 blk
COc1ccc(Cl)cc1NC(=O)CN(C)Cc1cccs1 | 6.3 | 2.8% | ? | -19 | 29 | -10% | 1
O=C(CSc1nnc2c(n1)[nH]c1ccccc12)NC1CCCCC1 | -5.1 | -2.6% | -13 | -7 | -1 | -15% | 32
CCOC(=O)c1cc2c(C)n(-c3ccc(N(C)C)cc3)c(C)c2cc(C(=O)OCC)c1=O | 0.2 | 20%[38.3 µM] | 2 | -5 | -2 | -1% | -1
O=c1[nH]cccc1-c1nc2ccccc2n1Cc1cccc(Cl)c1 | 0.1 | -2.5% | 3 | -3 | -2 | 4% | -3
CN1CCCN(CC(O)COCc2cccs2)CC1 (stereo not given) | 0.5 | -0.7% | -6 | -6 | 7 | 13% | -6
CCN1CCN(C(=O)CCc2ccc(S(=O)(=O)NCCc3ccccc3)cc2)CC1 | -1.8 | 0.4% | 5 | -14 | -1 | 0% | 1
Cc1ccc(S(=O)(=O)NC(=O)c2cc(C)n(C3CC3)c2C)cc1 | -5.3 | 0.3% | 15 | -10 | -10 | 32%[activator] | 22
COc1ccc(OC)c(/C=C/C(=O)OCC(=O)c2c(N)n(C)c(=O)n(C)c2=O)c1 | -2.9 | ? | -2 | 0 | 2 | 14% | 1
Cc1ccc([C@H]2C[C@@H](n3cc(C4CC4)nn3)[C@H](O)CN2C(=O)c2cccs2)cc1 | 0.0 | 1.0% | · | -4 | 0 | · | 8
O=C1OC(OC2CCCCC2)(c2ccccc2)c2ccccc21 (stereo not given) | -4.4 | 3.4%[38.3 µM] | -7 | -7 | 20 | -7% | 12
CSCCCN1CC[C@@H](N2CCN(c3ccccc3F)CC2)[C@H](O)C1 | ? | 2.8% | ? | 8 | 11 | 2% | -2
Cc1cc(-c2ccccc2)c2c(n1)sc1c(O)cc(=O)[nH]c12 | -0.1 | -0.4% | -3 | -7 | 1 | -20% | 3
CCCCCC(=O)N1CC2(CC(c3cccc(NC(=O)CC)c3)=NO2)C[C@H]1C(N)=O (stereo not given in full) | -4.7 | -1.3% | -21 | -5 | 5 | 5% | 1
CC(OC(=O)C1=COCCO1)C(=O)Nc1cccc(S(=O)(=O)N2CCOCC2)c1 (stereo not given) | -3.4 | -2.4% | -2 | -7 | 8 | 30% | -2
COCCNC(=O)C(=O)NCC1OCCN1S(=O)(=O)c1ccc(F)cc1 (stereo not given) | -4.6 | 0.7% | -3 | 6 | 0 | 18% | 8
Cc1cc(C)n2nc(SCC(=O)N3CCc4ccccc43)nc2n1 | -0.8 | 9.0% | 8 | -9 | 9 | -19% | -4
Cc1ccc(O)c(NC(=S)NC(=O)/C=C/c2ccccc2)c1 | 2.2 | 2.9% | -15 | 20 | · | 12% | -2
Cc1ccc(NC(=O)C23CCC(C)(C(=O)[C@H]2Br)C3(C)C)cc1 (stereo not given in full) | -0.9 | 1.4% | 8 | -6 | · | 7% | 4
CCN1CCN(C(=O)c2ccc(Cl)c(S(=O)(=O)N3CCOCC3)c2)CC1 | -1.6 | -1.4%[38.3 µM] | 17 | -9 | 13 | 12% | 3
O=C(COC(=O)c1ccc(Cl)c(S(=O)(=O)N2CCCC2)c1)NC1CCCCC1 | -0.7 | 1.3% | -6 | -3 | 2 | 5% | 14
COc1ccc(CN2C(=O)c3ccccc3C2c2nnnn2Cc2ccccc2)cc1OC (stereo not given) | · | 1.7% | · | · | 7 | · | 2
CN(C)/N=C/c1ccc(N2CCOCC2)cc1 | 1.3 | 0.9% | 2 | 4 | -3 | 18% | 0
Cc1ccc(-c2ccc(CCC(=O)O)n2NC(=O)c2cccs2)cc1 | 0.7 | -0.1% | 5 | 3 | -2 | 12% | 1
O=C(O)Cc1ccc(NC(=O)c2ccc3c(c2)C(=O)N(CC2CCCO2)C3=O)cc1 (stereo not given) | -3.1 | -0.3% | 14 | 12 | 1 | 13% | -2
CCOC(=O)c1c(NC(=O)COC(=O)c2cccc([N+](=O)[O-])c2)sc(C(=O)N(C)C)c1C | -3.3 | 0.4% | · | -5 | 1 | · | 0
COCCN(C(=O)COC(=O)/C=C/c1ccco1)c1c(N)n(Cc2ccccc2)c(=O)[nH]c1=O | 0.4 | 3.8% | 26 | -3 | -5 | 5% | -5
Cc1ccc(S(=O)(=O)N2CCC(=O)N(C(COCc3ccc(Cl)cc3Cl)Cc3ccccc3)CC2)cc1 (stereo not given) | -1.6 | -0.8% | -13 | -20 | -4 | 5% | -2
O=C(Cn1nnc2ccccc21)OCc1ccccc1 | -8.3 | 4.7% | -20 | -2 | 13 | -2% | 1
Cc1cccc(C(=O)Nc2c3c(nn2C(C)(C)C)CS(=O)(=O)C3)c1 | -2.2 | 1.1% | -17 | -1 | 1 | 20% | 1
CCOC(=O)CN1CC23C=CC(O2)C(C(=O)Nc2ccc(OCC)cc2)C3C1=O (stereo not given) | -4.9 | -0.2% | -6 | -4 | -1 | 12% | 6
CC(/C=C/c1ccccc1)=N\NC(=O)c1cc(C)nc2ccccc12 | -0.8 | 16% | · | -13 | -8 | 7% | -1
S=c1[nH]nc(Cc2ccc(Br)cc2)n1/N=C/c1ccc(Cl)cc1 | -7.0 | 0.7% | -6 | -10 | -5 | 14µM* | -14
COc1cccc(/C=C/c2nc(S(=O)(=O)c3ccccc3)c(N3CCC(C(N)=O)CC3)o2)c1 | 2.4 | 5.6% | · | -7 | 8 | · | -7
CCOc1ccc(C(=O)NCc2ccc3c(c2)OCO3)cc1 | -0.7 | -0.8% | -2 | -6 | 39 | 1% | 28
COc1ccc(NC(=O)C2CCCCN2N)cc1OC (stereo not given) | -1.8 | -0.9% | -2 | -7 | 4 | -8% | -2
COCCNC(=O)CCc1nnc2ccc(N3CCC(C)CC3)nn12 | -0.3 | 0.6% | 0 | 5 | 6 | 10% | 0
Cc1ccccc1Nc1ncnc2[nH]ncc12 | -1.6 | -0.1% | · | -15 | -1 | · | -4
Cc1nc(-c2cccc(NC(=O)c3ccc(-n4cccn4)cc3)c2)cs1 | 1.1 | 0.8% | 25 | 10 | 2 | · | -1
CC(=O)N/C(=C\c1ccccc1)C(=O)OCC(=O)N(CC(C)C)c1c(N)n(Cc2ccccc2)c(=O)[nH]c1=O | 2.1 | -3.6% | 3 | -17 | -4 | · | 4
Cc1ccc(C(C(=O)NC2CCCCC2)N(Cc2cccnc2)C(=O)C2COc3ccccc3O2)o1 (stereo not given) | -0.4 | · | -12 | -10 | -4 | -11% | -5

Sorted by molecular weight (largest number first): 4 of the compounds above.
SMILES | D2 ag | PINK1 expr mod | TRPV1 PAM | D2 potentiator | CtBP-E1A inh | Sfp inh | Six1-Eya2 blk
CCOC(=O)c1c(NC(=O)COC(=O)c2cccc([N+](=O)[O-])c2)sc(C(=O)N(C)C)c1C | -3.3 | 0.4% | · | -5 | 1 | · | 0
Cc1nc(-c2cccc(NC(=O)c3ccc(-n4cccn4)cc3)c2)cs1 | 1.1 | 0.8% | 25 | 10 | 2 | · | -1
CN(C)/N=C/c1ccc(N2CCOCC2)cc1 | 1.3 | 0.9% | 2 | 4 | -3 | 18% | 0
Cc1ccccc1Nc1ncnc2[nH]ncc12 | -1.6 | -0.1% | · | -15 | -1 | · | -4

Following part.
SMILES | D2 ag | PINK1 expr mod | TRPV1 PAM | D2 potentiator | CtBP-E1A inh | Sfp inh | Six1-Eya2 blk
COC(=O)C1=C(N)Oc2cc(C)[nH]c(=O)c2C1c1cc(OC)c(OC)c(OC)c1 (stereo not given) | -2.2 | 0.9% | 3 | -19 | 6 | 6% | -5
O=C(NCc1ccccn1)C1CCC(=O)N1C1CCCCC1 (stereo not given) | -4.6 | 2.4% | 2 | -4 | -29 | 8% | 0
O=C(CN1C(=O)CCSc2ccc(S(=O)(=O)N3CCOCC3)cc21)Nc1cccc(F)c1 | 5.7 | -1.9% | -6 | -8 | 3 | 14% | -2
CCn1c(/C=N/c2nc3ccccc3n2C)nc2ccccc21 | 0.4 | 6.1%[38.3 µM] | -6 | -10 | 7 | 23% | 3
Cc1nn(C(C)C(=O)NC2CC2)c(=O)c2nn(-c3ccccc3)c(C)c12 (stereo not given) | -4.2 | 0.0% | -6 | -7 | 0 | 15% | 5
CN(c1ccccc1)S(=O)(=O)c1cccc(NC(=O)c2ccc(=O)[nH]n2)c1 | 0.4 | 2.8% | · | -15 | -4 | · | 3
COCCN1CCn2c(nc3cc(NC(=O)NC4CCCCC4)ccc32)C1 | -0.3 | 0.5% | 0 | -6 | -8 | -7% | -1
CCN(C1CCS(=O)(=O)C1)S(=O)(=O)c1cccs1 (stereo not given) | -0.3 | 0.0%[38.3 µM] | 25 | -15 | 0 | -8% | -2
CCN(CC)CCN(C(=O)c1ccc2c(c1)OCCO2)c1nc2c(Cl)cccc2s1 | -0.4 | 19% | 2 | -38 | -3 | ? | -12
O=C1c2cc(CO)cc(O)c2C(=O)c2c(O[C@@H]3OC(CO)[C@@H](O)[C@@H](O)[C@@H]3O)cccc21 (stereo not given in full) | 9.9 | -0.9% | · | 26 | -4 | · | -3
CN(C)S(=O)(=O)c1cccc(NC(=O)c2cc(-c3cccs3)nn2-c2cccc(Cl)c2)c1 | 2.0 | 15% | 3 | -26 | 1 | 3% | -11
Cc1cc(C(=O)NC2CCCN(Cc3ccccc3F)C2)n[nH]1 (stereo not given) | -2.7 | -0.3% | 15 | -11 | 4 | 7% | -7
O=C(CSC1=NS(=O)(=O)c2ccccc2N1)NCCc1ccccc1 | 1.7 | -0.8% | -4 | -7 | 0 | · | 2
CCN(C(=O)c1ccc(S(=O)(=O)N2CCCC2)cc1)C1CCS(=O)(=O)C1 (stereo not given) | -2.0 | -0.7% | 3 | 3 | 2 | · | 8
O=C(CCC(=O)N(CC(=O)NC1CCCC1)Cc1ccc2c(c1)OCO2)Nc1ccccn1 | -1.5 | -0.3% | -5 | -14 | 13 | -6% | -1
CCOC(=O)c1ccc(NS(=O)(=O)c2cnc[nH]2)cc1 | 0.2 | -1.4% | -2 | 12 | -1 | 2% | 4
CCCc1cc(NCCCn2ccnc2)n2nc(C)c(-c3ccccc3)c2n1 | 5.6 | -0.7% | -8 | 17 | -12 | 0% | -11
Cc1cc2cc(CNC(=O)Cc3ccc([N+](=O)[O-])cc3)ccc2n1C | 0.9 | -2.1% | -16 | -18 | 0 | 9% | -1
OCCN1CCN(c2nccn3ccnc23)CC1 | -0.8 | -0.6% | · | -2 | -4 | · | 0

Screens: PubChem BioAssay, National Center for Advancing Translational Sciences (NCATS)
